# NPYLR7 ag – activates Aedes aegypti NPYLR7 receptor. HEK293T NPYLR7/Galpha15, GCaMP6s calcium fluorescence. AID 1259423. activation, % at 10 µM. hit rate 0.15% among 270,000; in the data active = activation above about 40%;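 also: 0% = vehicle and 100% = reference agonist at the receptor; some compounds past the cut are filed as inactive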
# NPYLR7 ag max-min – further read-out of NPYLR7 ag, marked with its call; activation, %; measured here: Max-Min RFU normalised activation; some inactives read as strong as hits;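 span of the calcium signal over five minutes; 0% = vehicle and 100% = native peptide agonist; compound fluorescence can raise it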
# * = called active by the depositor; & = joins results of further samples.
# Order of results: NPYLR7 ag	NPYLR7 ag max-min
1: COc1ccc(-n2nc(C(C)(C)C)cc2NC(=O)c2ccc(C(F)(F)F)cc2F)cc1
  8	5
2: C=C1C[C@H](OC(=O)C(C)(O)CCl)C2C(=C)C(=O)O[C@@H]2C2C1C[C@H](O)[C@]2(O)CCl (some centres undefined)
  2	2
3: Cc1ccc(N2C(=O)CC(NC3CCCC(C)C3C)C2=O)cc1 (centres undefined)
  -11	-15
4: Cn1nc(C(C)(C)C)cc1C(=O)Nc1ccc2nc(-c3cccc(Cl)c3)nn2c1
  10	1
5: COc1ccc(Nc2nccc3[nH]c(-c4ccsc4)cc23)cc1
  -5	-11
6: N#Cc1ccccc1CSc1nnnn1C1CC1
  7	9
7: C[C@H]1[C@H](n2cnnc2)C[C@@H]2C[C@H]1C2(C)C
  11	7
8: COCC(=O)Nc1ccc(N2CCN(C(=O)c3cccs3)CC2)nc1
  5	5
9: Cc1c(C(=O)N2[C@H]3CCNC[C@@H]2CC3)c2cc(O)ccc2n1C
  1	-1
10: COCn1ccnc1C(O)(c1ccc(Cl)cc1)c1ccc(C(C)(C)C)cc1 (centres undefined)
  6	10
11: Cc1ccc2c(C)c(C(=O)N3CCCN(C(=O)C4CCCO4)CC3)oc2c1 (centres undefined)
  6	5
12: Cc1cc(=O)n2nc(CN3CCN(C4CCS(=O)(=O)C4)CC3)sc2n1 (centres undefined)
  8	6
13: CCCCCCn1c(C)cn2c3c(=O)n(CC(C)=O)c(=O)n(C)c3nc12
  1	-2
14: Cn1c(=O)c(F)c(Nc2ccc(I)cc2F)c2c(=O)n(C[C@@H](O)CO)cnc21
  -2	-7
15: CCOC(=O)C1(CCOc2ccccc2)CCCN(C(=O)c2n[nH]c3ccccc23)C1 (centres undefined)
  3	2
16: Cc1ccc(NC(=O)C2(C)CCN2Cc2ccccc2Cl)cc1 (centres undefined)
  7	3
17: O=C(CN(C(=O)c1ccc(F)cc1F)C1CC1)N1CC(=O)N(c2cccc(Cl)c2)C1
  14	11
18: CCc1cc2c(cc1C(C)N)C(C)(C)CCC2(C)C (centres undefined)
  2	1
19: Cc1nn(CN2CCN(S(=O)(=O)c3cccs3)CC2)c(C)c1[N+](=O)[O-]
  0	-2
20: COc1ccc(OC)c2[nH]c(C(=O)N3CCC(C(=O)O)CC3)cc12
  -15	-24
21: COc1ccc(C(C)N(C)Cc2cc(C)[nH]n2)cc1 (centres undefined)
  9	8
22: CN(C)c1ccc(/C=C2\C(=O)N(c3ccc([N+](=O)[O-])cc3)N=C2N2CCOCC2)cc1
  -1	-5
23: CCOC(=O)c1cc(-c2ccc(N3CCN(C(=O)Cc4ccc(F)cc4)CC3)cc2)n(-c2ccccn2)n1
  3	1
24: CCN(CC)C(=O)Oc1ccc2c(ccn2Cc2ccccc2F)c1NC(=O)c1cc(F)cc(F)c1
  0	-8
25: CCOC(=O)c1nn(-c2ccc(Cl)cc2)c(=O)c2c(NC(=O)c3ccco3)scc12
  3	1
26: Cc1cccc(NC(=O)Cn2nc(C(F)(F)F)c(Cl)c2C)c1Cl
  2	0
27: COCCCNC(=O)c1csc(CSc2nnc(-c3ccccc3Cl)n2-c2ccccc2Cl)n1
  -3	1
28: Clc1cc2c(cc1NCc1nc(C3CC3)no1)OCCO2
  5	3
29: CCCCN1C(=O)C(=Cc2c(N3CCOCC3)nc3ccc(C)cn3c2=O)SC1=S
  -1	-3
30: COC(=O)c1sccc1S(=O)(=O)Nc1cc(Cl)cc(Cl)c1
  0	9

# Random excerpt: 7 entries already listed.
# Order of results: NPYLR7 ag	NPYLR7 ag max-min
2: C=C1C[C@H](OC(=O)C(C)(O)CCl)C2C(=C)C(=O)O[C@@H]2C2C1C[C@H](O)[C@]2(O)CCl (some centres undefined)
  2	2
6: N#Cc1ccccc1CSc1nnnn1C1CC1
  7	9
18: CCc1cc2c(cc1C(C)N)C(C)(C)CCC2(C)C (centres undefined)
  2	1
20: COc1ccc(OC)c2[nH]c(C(=O)N3CCC(C(=O)O)CC3)cc12
  -15	-24
13: CCCCCCn1c(C)cn2c3c(=O)n(CC(C)=O)c(=O)n(C)c3nc12
  1	-2
11: Cc1ccc2c(C)c(C(=O)N3CCCN(C(=O)C4CCCO4)CC3)oc2c1 (centres undefined)
  6	5
23: CCOC(=O)c1cc(-c2ccc(N3CCN(C(=O)Cc4ccc(F)cc4)CC3)cc2)n(-c2ccccn2)n1
  3	1

# (next part)
# Order of results: NPYLR7 ag	NPYLR7 ag max-min
31: COCC(=O)Nc1ccc(N(C)C)c(CN(CC2CC2)C(=O)c2ccc(OC)cc2)c1
  9	8
32: Cc1nc2c(C)cccc2cc1C(=O)N1CCC(Cc2nncn2C)CC1
  0	6
33: CCCCn1c(=S)[nH]c2sc3c(c2c1=O)CCC3
  11	11
34: COCCNC(=O)c1cccnc1Sc1ccc(Cl)cc1
  5	2
35: O=C(c1cc(Br)c[nH]1)N1CCCC1c1ccsc1 (centres undefined)
  9	10
36: CC(C)(C)NCC(O)COc1ccccc1C1CCCC1 (centres undefined)
  -12	-14
37: Cc1ccc(C(=O)CSc2[nH]c(=O)ncc2C)cc1
  6	3
38: CCCCn1c(N)c(N(CC)C(=O)CC(C)C)c(=O)[nH]c1=O
  4	8
39: c1nc(NCC2CNCCOC2)c2[nH]cnc2n1 (centres undefined)
  11	3
40: CC(NC(=O)c1ccc(-c2cc(-c3cccc(C(F)(F)F)c3)n[nH]2)cc1)c1ccc(Br)cc1 (centres undefined)
  0	-3
41: NC(=S)Nc1ccc2c(c1)OCCO2
  1	7
42: O=C(Nn1ccc2c(nnc3c(-c4ccc(Cl)cc4)cnn32)c1=O)c1ccncc1
  27	19
43: FCCCN1CCCC(CCc2ccccc2F)C1 (centres undefined)
  -6	-12
44: CCNC(=O)N1CCCC(OCc2cccc(OC)c2)C1 (centres undefined)
  -3	0
45: Cc1cc(C(=O)NC2CCN(C(=O)c3cc4c(s3)CCC4)CC2)on1
  1	0
46: Cn1cc(/C=C2/CSc3c(Cl)cccc3C2=O)c(=O)n(C)c1=O
  4	1
47: CCC(CN)Sc1cc(Cl)ccc1Cl (centres undefined)
  1	-1
48: O=C(NCc1cccc(OC(F)(F)F)c1)C1CC12c1ccccc1-c1ccccc12 (centres undefined)
  -9	-18
49: CCCn1c(C)cn2c3c(=O)n(C)c(=O)n(C)c3nc12
  11	2
50: CN1CCN(C(=O)Nc2ncc(-c3ccccc3)s2)C(CNC(=O)OC(C)(C)C)C1 (centres undefined)
  0	50
51: CC(C)C(=O)N1CCCC1(C)C(=O)Nc1ccccc1 (centres undefined)
  5	2
52: Cc1cc(C(C)NC(=O)c2sccc2C2CC2)c(C)s1 (centres undefined)
  -2	-3
53: Cc1ccoc1C(=O)Nc1ccc(S(=O)(=O)NC2CCS(=O)(=O)C2)cc1 (centres undefined)
  -2	-1
54: Cn1c(=O)[nH]c(=O)c2c1nc(N1CCOCC1)n2Cc1ccccc1Cl
  19	6
55: Cc1ccccc1C1=NOC(CNCc2ccccc2)C1 (centres undefined)
  -1	-2
56: C/C(N)=C(/C#N)C(=O)CSc1nnc(-c2cccc(C)c2)n1C
  4	1
57: COCCN(Cc1cc(Cl)ccc1OS(=O)(=O)c1ccc(NC(C)=O)cc1)C(=O)c1ccccc1Cl
  5	12
58: Cc1ccc(C)c(N2CCn3c2nc2c3c(=O)n(CCN3CCCCC3)c(=O)n2C)c1
  1	16
59: O=C(Cc1ccccc1)Nn1cnc2c(cnn2-c2ccccc2)c1=O
  4	-1
60: CCCCN(CC(=O)N(Cc1cccn1Cc1ccccc1)C1CC1)C(=O)c1cccc(C(F)(F)F)c1
  -1	8
61: Cc1nnc2n1-c1cc(F)ccc1C(c1ccc(F)cc1)CC2 (centres undefined)
  0	-2
62: Cc1cc(C)c2c(c1C(=O)NC(c1ccc(S(C)(=O)=O)cc1)c1cccc(N(C)C)c1)CC(C)(C)C2=O (centres undefined)
  -4	-9
63: CC1CCN(c2nc3c(c(=O)[nH]c(=O)n3C)n2CCSc2ncccn2)CC1
  0	-3
64: COCCNC(=O)c1nn(-c2cccc(C(F)(F)F)c2)c(=O)n(Cc2cccc(C)c2)c1=O
  -2	5
65: O=C(Cc1ccccc1)Nc1nc2ccc(Cl)cc2c2nc(-c3ccco3)nn12
  -15	-19
66: Cc1ccc(CNC(=O)c2ccnc(F)c2)cn1
  -5	-10
67: COc1ccc(-c2nc(/C=C/C(=O)Nc3nc(C)cs3)cs2)cc1
  6	4
68: CC(O)CN1CCN(CC(=O)N(C)Cc2cccc(F)c2)CC1C (centres undefined)
  -16	-16
69: N#Cc1ccccc1N1CCN(C(=O)NCc2ccsc2)CC1
  -12&18	-17&16
70: Cc1cc(S(=O)(=O)NCc2ccco2)ccc1Cl
  3	6
71: CC12CC3CC(C1)CC(C(=O)Nc1nn[nH]n1)(C3)C2
  -13	-18
72: CC(C)S(=O)(=O)c1ccc(C(=O)Nc2onc3c2CCC3)cc1
  12	3
73: COC(=O)Cn1cnc2c(nnn2-c2cccc(OC)c2)c1=O
  9	7
74: CCCCNC(=O)c1cc(-c2ccccc2F)n2nc(C(C)(C)C)cc2n1
  6	3
75: CCOC(=O)c1c(N)c(C(=O)c2cccc([N+](=O)[O-])c2)n2ccccc12
  -5	-10
76: COc1ccc(C(=O)N(Cc2cccc(F)c2)Cc2cc(NC(=O)C(C)C)ccc2N(C)C)cc1
  17	12
77: CC(C)(C)n1nc2c(c1NC(=O)c1ccc3ccccc3c1)CS(=O)C2 (centres undefined)
  -3	-5
78: O=C(CCC1CCN(Cc2ccc3nsnc3c2)CC1)NCc1cccnc1
  4	0
79: Cc1ccc(-n2nnnc2CNC(=O)NCc2ccccc2)cc1C
  -1	-3
80: O=C(NC1CCCC(C(F)(F)F)C1)Nn1cnc2ccccc21 (centres undefined)
  6	5
81: O=Cc1cn(CCC(=O)O)nc1-c1cc2ccccc2o1
  1	-4
82: CCCOc1ccccc1C(=O)N1CC[C@@H]2CC[C@H](C1)N2C
  -2	-5
83: CC(NC(=O)c1ccc(-c2ccc3c(c2)OCO3)s1)c1ccc(Br)cc1 (centres undefined)
  6	7
84: O=C(CSc1nc(=O)n(CC2CCCO2)c2c1CCCC2)N1CCN(c2ccccc2)CC1 (centres undefined)
  -6	-12
85: Cc1cc(Br)ncc1NC(=O)CC(C)n1cccc1 (centres undefined)
  -5	-7
86: CC(C)c1cc(C2CCN(Cc3ccc(-n4cncn4)cc3)CC2)[nH]n1
  3	1
87: Cc1cccc(-c2nc(C)c(C)c(N3CCN(S(=O)(=O)c4ccc(C(C)(C)C)cc4)CC3)n2)c1
  11	22
88: CCN1CCC(N(C2CC2)S(=O)(=O)c2c(C)nn(C)c2Cl)CC1
  17	8
89: CCOC(=O)CSc1n[nH]c2nc3sc4c(c3c(=O)n12)CC(C)(C)OC4
  13	7
90: CN(C)Cc1nnc(C(=O)N2CCCC(C(C)(C)O)C2)o1 (centres undefined)
  2	-2

# Rewritten as tab-separated lines: entries from further up
item	structure	NPYLR7 ag	NPYLR7 ag max-min
68	CC(O)CN1CCN(CC(=O)N(C)Cc2cccc(F)c2)CC1C (centres undefined)	-16	-16
69	N#Cc1ccccc1N1CCN(C(=O)NCc2ccsc2)CC1	-12&18	-17&16
70	Cc1cc(S(=O)(=O)NCc2ccco2)ccc1Cl	3	6

# Continued.
# Order of results: NPYLR7 ag	NPYLR7 ag max-min
91: COc1ccc(CNC(=O)c2ccccc2NS(=O)(=O)c2cccc(OC(F)(F)F)c2)cc1
  -4	6
92: Cc1ccc(-c2nc(CN3CCCCC3c3cccnc3)c(C)o2)s1 (centres undefined)
  5	6
93: COc1cc(C(=O)NCc2ccc(S(=O)(=O)N3CCCCC3)s2)ccc1C
  5	3
94: CN(C)c1ccc(N2C(=O)CSC2c2ccc(NC(=O)C(C)(C)C)cc2)cc1 (centres undefined)
  27	28
95: CN(Cc1ccc2nsnc2c1)C(=O)c1coc(Cn2cnc3ccccc32)n1
  0	-3
96: O=C(CCc1ccccc1)N1CCCC(OCCOc2ccccc2)C1 (centres undefined)
  16	17
97: O=C(Nc1ccccc1C(=O)N1CCN(Cc2ccccc2)CC1)c1ccco1
  -8	-12
98: O=C(Nc1ccc(Oc2ccccc2)nc1)C1CCN(Cc2cccc3nonc23)CC1
  -3	-4
99: O=C(c1ccc(C(=O)N2CCOCC2)s1)N1CCOCC1
  1	-1
100: CCN(CC)S(=O)(=O)NC(c1ccc(F)cc1)C(C)C (centres undefined)
  6	1
101: O=C(O)/C(=C/c1c(C(=O)O)[nH]c2cc(Cl)cc(Cl)c12)c1ccccc1
  -1	-7
102: O=C1CCCCCN1CCC(=O)N1CC[C@@H](c2ccc3c(c2)OCO3)[C@H](O)C1
  -3	-2
103: CCCN1CC(C(=O)N2CCCn3nc(C(=O)NC4CC4)cc3C2)CCC1=O (centres undefined)
  4	19
104: C#Cc1cccc(N(Cc2ccco2)C(=O)c2ccn(C)c(=O)c2)c1
  -7	-6
105: CCN1C(=O)CC(CC(=O)N(C)Cc2ccc(-n3cccn3)cc2)(c2cccc(C(F)(F)F)c2)C1=O (centres undefined)
  12	2
106: Cc1ccc(CN2CCC(C(=O)Nc3cccc(-c4cccc(F)c4)c3)CC2)o1
  4	2
107: O=C(NC1CCC(O)CC1)c1ccccc1SCC(=O)N1CCc2ccccc21 (centres undefined)
  14	12
108: COc1ccc(-c2ccc(=O)n(CCCNC(=O)COc3ccc4c(c3)OCO4)n2)cc1
  0	-1
109: O=S(=O)(O)c1cc(N=C=S)ccc1/C=C/c1ccc(N=C=S)cc1S(=O)(=O)O
  3	-5

# The list is partial; rates above refer to the full screens.
